HNF4A DNA FP = change in binding of human HNF4 alpha to DNA. 360,000 tested, 0.3% active. HNF4a-FITC DNA binding, fluorescence polarization, 1 h. P41235. activity change, % at 10 µM; in the data active = activity change above about 30%, passing the limit was not always enough;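 note: controls were the assay level and a saturating level of protein; the project sought stronger binding though the title names inhibitors; some compounds called inactive have numbers as strong as hits; positive values seem to mean higher polarization but the record does not say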
Target sequence (P41235 whole entry, looked up): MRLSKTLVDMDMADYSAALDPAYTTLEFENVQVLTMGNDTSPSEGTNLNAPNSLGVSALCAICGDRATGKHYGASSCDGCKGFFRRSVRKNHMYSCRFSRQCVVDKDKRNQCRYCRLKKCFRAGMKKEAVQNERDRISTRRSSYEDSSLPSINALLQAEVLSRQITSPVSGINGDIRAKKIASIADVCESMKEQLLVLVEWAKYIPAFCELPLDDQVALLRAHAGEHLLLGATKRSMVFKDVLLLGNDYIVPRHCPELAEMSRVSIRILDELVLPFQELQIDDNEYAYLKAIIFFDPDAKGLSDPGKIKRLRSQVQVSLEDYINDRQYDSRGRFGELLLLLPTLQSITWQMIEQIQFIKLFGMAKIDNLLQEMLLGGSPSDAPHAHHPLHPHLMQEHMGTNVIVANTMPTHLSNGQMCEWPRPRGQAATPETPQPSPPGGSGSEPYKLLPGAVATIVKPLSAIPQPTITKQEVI
FGF22 binding = shifts melting point of recombinant human FGF22; 340,000 tested, 1.5% active; recombinant FGF22 thermal shift, SYPRO orange fluorescence; percent of sucrose octasulfate shift, DMSO zero; Q9HCT0; calls only at 9.99 µM;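 active = melting point raised past a set limit in the mean and every replicate; inconclusive = no clear call; three in four hits are not shown here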
ALR inh = inhibitors of human sulfhydryl oxidase ALR | purified ALR, DTT oxidation, H2O2 HRP-luminol luminescence | 290,000 tested, 3.8% active | P55789 | inhibition, % (no concentration beside the values);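 active = mean and each replicate at 75% or more; inconclusive = only one of the two met; inactive = neither met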;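 note: stock transfer was 7.5 nL into about 7.5 µL; 0% = neutral wells and 100% = wells with inactivated enzyme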
Target sequence (P55789 whole entry, looked up): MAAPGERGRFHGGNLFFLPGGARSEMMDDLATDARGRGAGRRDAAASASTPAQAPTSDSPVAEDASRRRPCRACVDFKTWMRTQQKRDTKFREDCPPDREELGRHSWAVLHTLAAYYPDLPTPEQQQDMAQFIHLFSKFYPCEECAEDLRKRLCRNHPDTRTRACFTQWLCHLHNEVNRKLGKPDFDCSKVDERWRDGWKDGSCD
Ecoli rRNA inh = inhibitors of bacterial rRNA selective over humanized ribosomes. 350,000 tested, 1.6% active. AID 720706. E. coli WT GFP vs humanized-ribosome RFP mutants, fluorescence, 24 h; active compounds read low; DMSO median 0, no signal -100. GFP signal change (wild-type ribosome), % (no concentration beside the values);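 active = significant combined selectivity score with lowered wild-type GFP, culture density cut under 30%, mutant RFP and density less affected; inactive = any of these conditions unmet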; note: one replicate is shown; some compounds called inactive have numbers as strong as hits
Beta2AR agonist = human beta-2 adrenergic receptor agonism by FAP; P07550; Am2.2-beta2AR cells, FAP receptor internalization, flow cytometry; reference of the scale not given here; response, % (test concentration not listed); 340,000 tested, 0.43% active; AID 504454;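 active = response above a set limit, near 3 SD of response in nonfluorescent compounds, cut at about 42% in these data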;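 note: stock transfer was 100 nL into about 11 µL; a reference agonist was the positive control; negative values mostly stem from fluorescent compounds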
Target sequence (P07550 whole entry, looked up): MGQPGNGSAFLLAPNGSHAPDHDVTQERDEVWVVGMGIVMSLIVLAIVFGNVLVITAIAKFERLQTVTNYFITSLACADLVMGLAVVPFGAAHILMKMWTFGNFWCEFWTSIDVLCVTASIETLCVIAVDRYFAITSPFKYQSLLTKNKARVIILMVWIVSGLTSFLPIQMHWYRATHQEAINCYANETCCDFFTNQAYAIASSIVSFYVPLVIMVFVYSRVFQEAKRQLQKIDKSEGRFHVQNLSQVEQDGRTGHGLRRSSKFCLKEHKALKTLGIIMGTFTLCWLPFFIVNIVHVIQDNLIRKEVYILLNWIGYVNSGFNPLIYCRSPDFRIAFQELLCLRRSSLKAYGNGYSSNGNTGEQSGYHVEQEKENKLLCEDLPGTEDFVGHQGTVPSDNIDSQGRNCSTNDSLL
Ecoli growth = E. coli growth inhibition; Escherichia coli growth, OD600, 23 h; active compounds read low; OD600 absorbance (concentration not given with the values); 330,000 tested, 0.21% active;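 active = OD600 absorbance below the run mean of sample wells minus 3.6 SD, in any replicate, cut at about 0.56 in these data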;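 note: stock transfer was 300 nL into about 60 µL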
UCH37 inh = human UCH37 deubiquitinating enzyme inhibition. inhibition, % (no concentration beside the values). purified proteasome/UCH37, Ub-AMC cleavage fluorescence. AID 588478. Q9Y5K5. 330,000 tested, 0.33% active;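 active = mean of two replicates above 20%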;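 note: 0% = compound-free wells with enzyme and 100% = wells lacking proteasome; stock transfer was 100 nL into about 20 µL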
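system = Proteasome-associated human UCH37 deubiquitinase | amount = 0.15 nM proteasome as dispensed | medium = pH 7.4 Tris-HCl (50 mM) with ovalbumin, ATP-MgCl2, DTT | incubation = 30 min preincubation with enzyme, 25 min cleavage at room temperature | detection = AMC fluorescence 355/460 nm | read-out basis = percent inhibition | controls = no-proteasome and no-compound wells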
Ecoli rRNA inh OD600 = second read-out of Ecoli rRNA inh, no call of its own (marks repeat the call); OD600 change, %; measured here: OD600 growth;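 optical density of the mix in the first replicate; 0 = DMSO median and -100 = no signal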
Ecoli rRNA inh RFP = further read-out of Ecoli rRNA inh, marked with its call; RFP signal change, %; measured here: RFP humanized mutant strains;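 first replicate; 0 = DMSO median and -100 = no signal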
Numbers without * were called inactive; i = inactive; ? = inconclusive; nt = no result given. An excerpt; count on the stated rates, not on these rows.

nr | molecule | HNF4A DNA FP | FGF22 binding | ALR inh | Ecoli rRNA inh | Ecoli rRNA inh OD600 | Ecoli rRNA inh RFP | Beta2AR agonist | Ecoli growth | UCH37 inh
1 | CCCNC(=O)C1(C)CCCN(Cc2cc(-c3ccccc3)nn2C)C1 (stereo unspecified) | 1.4 | i | nt | 1 | 7 | 1.6 | nt | nt | nt
2 | C=CCn1c(CCC(=O)Nc2ccc(C)c(Cl)c2)nnc1SCC(=O)Nc1ccccc1C | 2.5 | nt | nt | nt | nt | nt | -6 | 0.65 | 1.4
3 | Cc1ccc(C(=O)NCCCc2ccccc2)c(C)c1 | 2.2 | i | -16 | -22 | -20 | -4.8 | -8 | 0.66 | -1.2
4 | CC1CCN(CCc2nc3cc(NS(=O)(=O)c4ccccc4)ccc3n2C)CC1 | 2.5 | nt | -1 | nt | nt | nt | 4 | 0.72 | 5.1
5 | O=C(COc1ccc(F)c(Cl)c1)Nc1ccc(N2CCOCC2)cc1 | 6.9 | i | 8 | nt | nt | nt | 0 | 0.66 | 4.1
6 | Cc1ccc(NC(=O)CN(C)CC(=O)Nc2sc3c(c2C(N)=O)CCC3)cc1 | -4.7 | i | 20 | -32 | -30 | -2.6 | -13 | 0.69 | 2.5
7 | CSC(=Nc1cccc(C)c1)NC#N | 3.5 | i | -19 | 5 | -2 | -7.4 | 7 | 0.68 | 0.8
8 | NS(=O)(=O)c1ccc(CNS(=O)(=O)c2cc(Cl)ccc2Cl)cc1 | -1.3 | i | nt | -2 | 0 | -1.0 | 3 | 0.65 | 4.5
9 | O=C(CCn1c(=S)[nH]c2ccccc2c1=O)NCCSCc1ccccc1 | 2.1 | i | -1 | 1 | -4 | -1.6 | -8 | 0.72 | 3.3
10 | CN1CC(=O)Nc2ccccc2C1=O | -0.1 | i | 0 | 0 | 6 | -0.9 | -5 | 0.67 | 2.3
11 | Cc1ccc(NC(=S)NCc2ccc(F)cc2)cc1 | 1.2 | i | -3 | -22 | -11 | -5.4 | -7 | 0.62 | 4.4
12 | Cc1cc(O)c2c(c1O)C(=O)[C@]13C(=C2O)C(=O)[C@@H]2[C@@H](O)[C@H]1[C@@H]1[C@H](O)[C@H]3C(=O)C3=C(O)c4c(O)cc(C)c(O)c4C(=O)[C@]312 | -39 | nt | nt | nt | nt | nt | -38 | 0.55 | 21*
13 | COc1ccccc1CCC(=O)OCC(=O)Nc1c(C)nn(-c2ccccc2)c1C | -1.3 | nt | nt | 1 | -1 | -0.5 | -2 | 0.69 | 4.2
14 | COc1ccc(C2=NOC(C(=O)Nc3ccc4c(c3)OCCO4)C2)c(OC)c1 (stereo unspecified) | 1.9 | i | -2 | -20 | -26 | -2.8 | -3 | 0.66 | 1.5
15 | CC(C)n1cc(NC(=O)COc2ccccc2Cl)cn1 | 0.3 | i | -1 | 1 | 2 | -3.8 | 4 | 0.69 | 1.7
16 | Cc1cccn2c(=O)c3cc(C(=O)N4CCCCC4)sc3nc12 | 2.0 | i | 18 | 16 | 8 | 6.0 | -10 | 0.66 | i
17 | O=C(O)CCCN1C(=O)/C(=C\C(Cl)=C\c2ccccc2)SC1=S | -7.3 | i | 98* | 20 | 13 | 8.8 | 12 | 0.63 | 7.9
18 | CCOc1cc(/C=N/Nc2nn3cnnc3c3ccccc23)ccc1O | 2.7 | i | 82* | 6 | 10 | 6.0 | 5 | nt | nt
19 | O=C(OCC(=O)N1CCCC1)c1ccc(S(=O)(=O)N2CCOCC2)cc1 | 4.3 | i | -1 | 20 | 20 | 1.9 | 4 | 0.66 | 0.2
20 | COCC(=O)OCn1nnc2ccccc2c1=O | 2.3 | nt | 2 | nt | nt | nt | -1 | 0.74 | 4.3
21 | Cc1ccccc1NC(=O)CN1CCOCC1 | -0.1 | i | -17 | 12 | 25 | 3.0 | -5 | 0.62 | 1.2
22 | CCOc1cc2[nH]c(=S)n(CCCC(=O)NCc3ccccn3)c(=O)c2cc1OCC | 1.4 | i | 21 | 8 | 8 | 0.9 | -6 | 0.75 | 7.8
23 | O=C(NC1CCCC1)C(c1ccncc1)N(C(=O)Cc1cccs1)c1ccc(F)cc1 (stereo unspecified) | -3.0 | i | nt | 1 | 3 | 0.8 | -2 | 0.67 | 3.3
24 | O=C(NCC1COc2ccccc2O1)c1ccc(F)c(S(=O)(=O)N2CCOCC2)c1 (stereo unspecified) | 4.6 | i | nt | 9 | 10 | -0.7 | 9 | 0.67 | 5.2
25 | OCCNc1nc(Cl)nc(NCc2ccco2)n1 | -3.7 | i | 1 | 7 | 3 | -2.5 | -5 | 0.71 | 3.4
26 | COc1ccc(/C=C/c2ccc(=O)n(Cc3ccccc3)n2)cc1 | 4.1 | i | -4 | 15 | 12 | 0.5 | -1 | 0.69 | -65
27 | CCOC(=O)c1sc2ccccc2c1OC(=O)c1ccc(C)cc1 | -3.8 | nt | nt | nt | nt | nt | 6 | 0.71 | 1.6
28 | O=C(CN1CCN(S(=O)(=O)c2ccc(Br)cc2)CC1)Nc1ccc(F)cc1 | -1.2 | nt | nt | nt | nt | nt | 0 | 0.7 | -0.2
29 | NNC(=O)c1cc(NS(=O)(=O)c2cccs2)cc(NS(=O)(=O)c2cccs2)c1 | 0.2 | i | 41 | 14 | 21 | -0.8 | 1 | 0.73 | -0.1
30 | CCN(CC(=O)Nc1ccc(OC)cc1)C(=O)c1ccc2c(=O)n3c(nc2c1)CCC3 | 1.1 | i | -5 | 4 | 11 | -0.9 | -2 | 0.69 | 1.4
31 | c1ccc(N2CC3COc4ccccc4C3=N2)cc1 (stereo unspecified) | -2.7 | i | nt | -15 | -26 | -1.3 | 1 | nt | nt
32 | CCN(CC(=O)Nc1ccc2c(c1)OCCO2)C(=O)/C=C/c1cccc(Br)c1 | -1.8 | i | 11 | -26 | -23 | -0.1 | 4 | 0.68 | 0.4
33 | COc1ccc(-c2cc(=O)oc3cc(OC(C)C(=O)O)ccc23)cc1 (stereo unspecified) | 3.0 | nt | -6 | nt | nt | nt | 0 | 0.7 | -3.5
34 | O=C(CCc1ccccc1)NC(=S)Nc1cccc(C(=O)O)c1 | 1.0 | i | -2 | -12 | -8 | -0.2 | 0 | 0.72 | 2.5
35 | CCCOc1ccc(N2C(=O)CC(N(Cc3ccccc3)N=O)C2=O)cc1 (stereo unspecified) | 1.1 | nt | -6 | 19 | 23 | 1.8 | -4 | 0.65 | 1.0
36 | CCn1c(Cn2nnc(-c3ccccc3)n2)nnc1SCC(=O)Nc1ccc(N(C)C)cc1 | 1.9 | nt | -5 | nt | nt | nt | 5 | 0.68 | 1.5
37 | CC(C)COC(=O)n1ccc(C(=O)N2CCCCC2)n1 | 6.1 | nt | 2 | nt | nt | nt | 3 | 0.69 | 0.3
38 | NC(=O)c1ccc(NC(=O)Cc2csc(-c3ccccc3)n2)cc1 | 0.1 | i | -5 | 0 | 8 | 1.5 | -7 | 0.71 | -3.6
39 | COc1cccc(C(=O)OCC(=O)Nc2cc(C)c(C)cc2[N+](=O)[O-])c1 | -1.4 | nt | 1 | -8 | 0 | -4.0 | 0 | 0.72 | 0.7
40 | Cc1ncc([N+](=O)[O-])n1CC(=O)NC1CCCCCC1 | -2.3 | i | 1 | 10 | 10 | 5.5 | 2 | 0.69 | 2.5
41 | N=c1n(CCN2CCCCC2)c2ccccc2n1CC(O)c1cccc(Br)c1 (stereo unspecified) | -1.1 | nt | nt | nt | nt | nt | 38 | nt | 2.6
42 | COc1ccc(/C=N/NC(=O)COc2cccc3cccnc23)cc1OC | 0.8 | i | -3 | -8 | -6 | 3.9 | -6 | nt | nt
43 | O=C(Nc1ccc(N=Nc2ccccc2)cc1)c1cccc(Cl)c1 | -1.5 | nt | 57 | nt | nt | nt | 8 | 0.69 | 3.9
44 | O=C1COc2ccc(C(=O)CSc3nc4ccccc4c(=O)n3-c3ccc(Cl)c(Cl)c3)cc2N1 | -0.2 | i | 3 | 2 | 25 | 11 | 4 | 0.7 | -5.8
45 | Cn1nccc1CNC(=O)c1ccnn1C | 0.0 | nt | nt | nt | nt | nt | -4 | 0.7 | 6.7
46 | COc1ccc2c(c1)c(=O)oc1cc(OCC(=O)N3CCC(C)CC3)ccc12 | -12 | nt | 3 | nt | nt | nt | 2 | 0.73 | -366
47 | CC(=O)OC1CCC2(C)C3=CCC4(C)C(C(C)=O)=CCC4C3CCC2C1 (stereo unspecified) | -0.4 | i | nt | 2 | 9 | -3.2 | 13 | 0.63 | 0.6
48 | CNc1nc(-c2ccc(Cl)cc2)cs1 | -1.1 | nt | 21 | nt | nt | nt | 2 | 0.66 | -1.7
49 | COc1ccc(CNC(=O)C23CN(Cc4ccccc4)CC2C(c2ccc([N+](=O)[O-])cc2)=NO3)cc1 (stereo unspecified) | -8.9 | i | -4 | 7 | -1 | -2.6 | 2 | nt | -1.4
50 | Cc1cc(C(=O)NCc2ccc3c(c2)OCO3)n(-c2ccccc2)n1 | 0.6 | i | nt | 3 | 8 | -0.6 | 1 | 0.79 | 0.7

New compounds follow:
nr | molecule | HNF4A DNA FP | FGF22 binding | ALR inh | Ecoli rRNA inh | Ecoli rRNA inh OD600 | Ecoli rRNA inh RFP | Beta2AR agonist | Ecoli growth | UCH37 inh
51 | COCCNC(=O)CN1C(=O)CSc2cc(S(=O)(=O)N3CCCCCC3)ccc21 | -4.4 | i | nt | 5 | 2 | 0.8 | -5 | 0.73 | 2.3
52 | COc1ccc(CN(C(=O)c2ccc(C)cc2)c2cccc(N)c2)cc1 | 18 | i | nt | -4 | -8 | 2.6 | 6 | 0.74 | 1.0
53 | Cc1cc(C(=O)N2CCCC2(C)C(=O)O)c(C)o1 (stereo unspecified) | -1.8 | i | nt | 12 | 19 | 0.6 | nt | nt | nt
54 | Cc1onc(C(=O)Nc2sc3c(c2C#N)CCCC3)c1[N+](=O)[O-] | -2.5 | i | 90* | -10 | -11 | 1.5 | 8 | 0.69 | 10
55 | Cc1ccc(S(=O)(=O)N2CCCCC2)cc1NC(=O)c1nn(C)c(=O)c2ccccc12 | 2.5 | i | nt | 0 | 7 | -4.5 | 11 | 0.72 | -0.3
56 | O=C(COC(=O)COc1ccc(Cl)cc1)NC1CC1 | -0.8 | i | 1 | 14 | 13 | -0.9 | 1 | 0.7 | -1.4
57 | NS(=O)(=O)c1ccc(NS(=O)(=O)c2ccc3c(c2)OCCO3)cc1 | -0.4 | i | 4 | 6 | 7 | -1.7 | 5 | 0.69 | 0.1
58 | COc1cc(NS(=O)(=O)c2ccc(NC(=O)C34CC5CC(CC(C5)C3)C4)cc2)ncn1 | 0.4 | nt | 0 | nt | nt | nt | -3 | 0.7 | 0.0
59 | CCOc1ccc(-n2c(SCC(=O)Nc3cc(C)on3)nc3c([nH]c4ccccc43)c2=O)cc1 | 1.5 | i | nt | 6 | 6 | 0.7 | 2 | 0.73 | 5.4
60 | COc1cccc(Nc2nc(C)nc3c2oc2ccccc23)c1 | 1.6 | i | ? | 8 | -43 | -13 | 23 | 0.65 | -50
61 | COc1ccccc1Cn1[nH]nnc1=S | -0.7 | i | 40 | nt | nt | nt | -4 | 0.65 | 4.1
62 | CO/N=C(/CNC(=O)c1cccc(Cl)c1)c1ccc(Cl)cc1 | -3.6 | nt | -7 | nt | nt | nt | -1 | nt | nt
63 | COc1cccc(/C=N/NC(=O)c2[nH]nc3c2CCc2ccccc2-3)c1 | 2.7 | i | -7 | -37* | -11* | -2.2* | 24 | nt | nt
64 | O=C1NC(=O)C2(CCCCCC2)N1 | 1.6 | i | nt | 10 | 11 | 0.2 | -5 | 0.66 | 4.8
